gsp antag = qHTS for Antagonists of gsp, the Etiologic Mutation Responsible for Fibrous Dysplasia/McCune-Albright Syndrome: qHTS; 340,000 tested, 0.4% active; AID 624288, 2012; Potency, µM (highest dose often 76.9 µM), for the others: top-dose activity change, negative = inhibition, actives largely listed as inhibitors; gsp-mutant cells, cAMP HTRF, 30 min; control for the full effect not named in the record; active = falling curve of any shape with a large fitted effect; inconclusive = falling curve, mostly with a smaller effect; inactive = flat or rising curve; cell line not stated here;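 further: intracellular cAMP measured with PDE inhibitor Ro 20-1724 present during compound exposure; potency means the concentration at half of the fitted maximal effect; on the % scale 0 is the no-effect control and ±100 the full control effect; nearly all actives have a fitted effect of over 65% in size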
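HTRF cAMP measurement after 30 min RT detection following 30 min, 37C compound treatment alongside […] (added as 300 uM solution) in G418-selected cells seeded at 2000/well and grown 16–24 h.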
gsp ag = qHTS for Agonist of gsp, the Etiologic Mutation Responsible for Fibrous Dysplasia/McCune-Albright Syndrome: qHTS. gsp mutant cells, cAMP HTRF, 30 min; control for the full effect not named in the record. Potency, µM (doses to about 76.9 µM), without a hit: at the top dose activation (cAMP increase), most hits filed as activators. 340,000 tested, 0.13% active. AID 624287, 2012; active = well fitted activation curve with a large enough effect; inconclusive = small, poorly fitted or top-dose-only effect, or another doubt; inactive = no such curve, though single readings can be large or run the other way; cell line not stated here;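 further: phosphodiesterase inhibitor Ro 20-1724 added with compounds to block cAMP breakdown; potency means the concentration at half of the fitted maximal effect; nearly all actives have a fitted effect of over 60% in size; about a fifth of the inactives were tested at one dose only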
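Cells in DMEM/10% FBS with G418 were pretreated with compounds in DMSO plus […] (300 uM stock) for 30 min at 37C. cAMP was measured by HTRF (cAMP-d2 plus anti-cAMP antibody-K) after 30 min at room temperature.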
D2 ag = Beta-Arrestin HTS for Positive Allosteric Modulators of the Human D2 Dopamine Receptor: Agonists; D(2) dopamine receptor (Homo sapiens), P14416; DiscoveRx PathHunter D2 beta-arrestin, luminescence, 90 min; 100% = 57 uM dopamine signal; activation, % (test concentration not listed); 360,000 tested, 0.084% active; AID 624465, 2012; in the data active = activation above about 40%; inconclusive = about 15% to 40%; inactive = below about 15%; further: compound concentration not given in the record; the text of the record calls up to 30% inactive
Target sequence (P14416 whole entry, looked up): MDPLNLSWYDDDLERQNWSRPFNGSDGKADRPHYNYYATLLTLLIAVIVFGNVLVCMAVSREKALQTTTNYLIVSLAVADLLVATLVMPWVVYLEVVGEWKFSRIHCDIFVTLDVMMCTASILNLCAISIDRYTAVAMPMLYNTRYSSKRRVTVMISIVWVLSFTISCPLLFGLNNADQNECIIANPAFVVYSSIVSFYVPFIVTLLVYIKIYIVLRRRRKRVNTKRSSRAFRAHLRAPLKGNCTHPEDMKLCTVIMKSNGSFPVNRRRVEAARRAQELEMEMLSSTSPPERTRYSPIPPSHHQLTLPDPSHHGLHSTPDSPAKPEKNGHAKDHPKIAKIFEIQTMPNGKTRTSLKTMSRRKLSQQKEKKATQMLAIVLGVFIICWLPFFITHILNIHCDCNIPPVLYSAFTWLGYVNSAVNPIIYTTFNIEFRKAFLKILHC
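Agonist mode: compounds alone added to overnight-plated D2 PathHunter cells for 90 min at 37 C, with 57 uM final dopamine (EC100) defining full response. Beta-arrestin recruitment detected by chemiluminescent reagent, read after 1 h at ambient temperature.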
Menin-MLL FL inh = qHTS Assay for Inhibitors Targeting the Menin-MLL Interaction in MLL Related Leukemias: Competition With Fluorescein Labeled MLL-derived Peptide. Fluorescence polarization, fluorescein-MLL peptide displacement from menin. FP activity change, % at 61.4 µM. 290,000 tested, under 10 active; inconclusive = falling polarisation curve, or a change in total fluorescence; inactive = total fluorescence flat and polarisation flat or rising; no compound was filed as active; the % refers to the polarisation; negative = inhibition;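 further: % of control where 0% means no effect; inhibitors lower the polarisation; unlabelled MLL peptide was the positive control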
PINK1 expr mod = A Quantitative High throughput Screen to Identify Chemical Modulators of PINK1 Expression; PINK1 immunofluorescence, high-content cytometry, 24 h; Potency, µM (top dose mostly 76.6 µM), inactives show top-dose activation (PINK1 increase), most hits filed as activators; 410,000 tested, 0.2% active; AID 624263, 2012; active = well fitted activation curve with a large enough effect; inconclusive = small, poorly fitted or top-dose-only effect; inactive = flat fitted curve, though single readings scatter; cell line not stated here;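 further: potency means the concentration at half of the fitted maximal effect; % of control where 0% means no effect; nearly all actives have a fitted effect of over 65% in size; a mitochondrial uncoupler was the plate control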
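Fluorescence from anti-PINK1 antibody, together with nuclear and cell stains, was scanned on a laser-scanning cytometer. Before staining, stable-line cells were incubated 24 hours with compounds at 5 concentrations; primary antibody 12 h at 10 degrees C.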
Sfp inh = qHTS Assay for Inhibitors of Bacillus subtilis Sfp phosphopantetheinyl transferase (PPTase); Potency, µM, for inactives: max response, negative = inhibition, hits mostly inhibitors; 4'-phosphopantetheinyl transferase ffp (Bacillus subtilis), Q9F4F7; Biochemical Sfp PPTase activity, qHTS; 310,000 tested, 3.5% active; active means well fitted inhibition curve with a large enough effect; inconclusive means small, poorly fitted or top-dose-only effect, or another doubt; inactive means no such curve, though single readings can be large or run the other way;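 further: the enzyme is Sfp with the accession as filed and its product quenches rhodamine fluorescence; potency means the concentration at half of the fitted maximal effect; 0% = enzyme reaction without inhibitor and -100% = no enzyme wells; top concentration of the series not given in the record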
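Reaction rates are the 30-min fluorescence difference (ex 525, em 598 nm) in wells containing 15 nM Sfp, 5 uM rhodamine-CoA and 12.5 uM BHQ-2-YbbR at pH 7.6 with 10 mM MgCl2.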
ClpP mod = qHTS Assay for Activators of ClpP. 340,000 tested, 1.9% active. AID 651965, 2013. purified B. subtilis ClpP, FRET peptide cleavage, 20 min. Potency, µM (titrated, usually from 57.5 µM), for inactives: top-dose activity change, negative = active; active = well fitted falling curve with a large enough effect; inconclusive = small, poorly fitted or top-dose-only effect; inactive = no such curve, though single readings can be large or run the other way; further: potency means the concentration at half of the fitted maximal effect; the source files actives as falling curves though it sought activators and does not explain the sign; nearly all actives have a fitted effect of over 65% in size; many hits overshoot -100%
Target sequence (P80244 whole entry, looked up): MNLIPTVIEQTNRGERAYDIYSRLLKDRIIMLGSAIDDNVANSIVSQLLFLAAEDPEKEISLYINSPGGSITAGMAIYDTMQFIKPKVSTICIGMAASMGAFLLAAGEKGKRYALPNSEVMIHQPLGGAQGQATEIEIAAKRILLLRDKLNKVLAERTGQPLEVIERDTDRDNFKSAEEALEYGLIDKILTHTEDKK
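ClpP 10 microg/mL final, pH 8 Tris/KCl buffer with BSA, glycerol, Tween-20; compound pinned in; FRET-FV substrate; RT 20 min; Ex320/Em430; ΔFRET vs ADEP 5.8 microM, DMSO, no enzyme.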
Starred values were filed as active, the others as inactive; ? = inconclusive; · = no result given; & = joins results of further samples; [ ] = another dose, or the depositor's remark.

Screens in order: gsp antag, gsp ag, D2 ag, Menin-MLL FL inh, PINK1 expr mod, Sfp inh, ClpP mod
- CCC(=O)N(c1nnc(SCC(=O)c2ccc[nH]2)s1)C1CC1
    0%, 1%, 6.3, ·, -4.6%, ·, -0.6%
- Cc1ccc(S(=O)(=O)Nc2c(C)n(C)n(-c3ccccc3)c2=O)c(C)c1
    10%, -11%[15.4 µM], 3.0, -3.8, 0.9%, 4%, -2.6%
- COc1ccc(CNC(=O)C2CCN(S(=O)(=O)c3ccc(-c4nn[nH]n4)cc3)CC2)cc1
    5%, -4%, -4.1, 3.5, 2.3%, 8%, 17%
- CCCCN(C(=O)c1ccc(N2CCCC2=O)cc1)c1c(N)n(CCC)c(=O)[nH]c1=O
    15%, -13%, -4.0, ·, 0.8%, ·, -1.3%
- CCOC(=O)c1ccc(NC(=O)c2cc(C)nc3ccccc23)cc1
    -10%, -1%[15.4 µM], -3.5, 3.9, -0.9%, 7%, -1.0%
- OC(CNCc1ccco1)Cn1c2ccc(Br)cc2c2cc(Br)ccc21 (stereo unspecified)
    19%, -91%[inhibitor], -2.2, -0.7, ·, 20µM*, -3.3%
- CC1Cc2ccccc2N1Cc1nc2scc(-c3cccs3)c2c(=O)[nH]1 (stereo unspecified)
    3%, 0%, -3.7, 0.5, -1.3%, 7%, -0.7%
- COc1cc2c(C(=O)NC3CCCCCC3)cn(C)c(=O)c2cc1OC
    11%, ?, -2.0, 2.1, 4.3%, 16%, -10%
- O=C(CSc1ncn[nH]1)NCCCc1ccccc1
    -2%, 11%, -3.6, 3.0, -0.3%, 6%, 1.1%
- Cc1cccc(-n2c(C)n[nH]c2=S)c1
    11%, -12%, 1.0, 1.1, ·, -11%, -20%
- COc1ccc(C2=NO[C@@H]3C(=O)N(Cc4ccccc4)C(=O)[C@H]23)c(OC)c1
    -7%, 5%, -5.0, 1.2, 3.2%, 1%, ·
- C[C@H]1COC(=O)[C@H](Cc2ccc(F)cc2)CC/C=C/C[C@@H](CC(=O)N(CCO)Cc2ccccc2)C(=O)N1
    -3%, ·, 0.3, ·, 0.6%, ·, 0.2%
- Cc1nc2ncnn2c(N2CCCC(C(=O)Nc3ccccc3Br)C2)c1C (stereo unspecified)
    -20%, 22%[15.4 µM], -3.0, -0.8, -0.3%, 5%, -2.6%
- Cc1ccc(N2CC(C(=O)NCCN3CCOCC3)CC2=O)cc1C (stereo unspecified)
    4%, 1%, 0.7, -1.6, -0.6%, 11%, ·
- Clc1ccc2nc(CSc3nnc4ccccn34)cn2c1
    3%, ?, -0.2, 0.7, 1.3%, 12%, -11%
- CC(C)(C)c1ccc(NS(=O)(=O)c2ccc(N)cc2)cc1
    9%, 21%, 4.0, -3.0, 2.6%, -20%, ·
- Cc1ccccc1C(C(=O)NC1CCCCC1)N(C(=O)c1ccccn1)c1cccnc1 (stereo unspecified)
    4%, 1%[15.4 µM], -4.4, 1.3, 3.1%, -4%, -2.0%
- Cc1ccc(C2C=CC(C#N)=CN2Cc2ccccc2)cc1 (stereo unspecified)
    ·, ·, -5.8, ·, 6.6%, ·, -5.0%
- Cc1ccc(C(=O)N=c2sccn2C)cc1S(=O)(=O)N1CCOCC1
    2%, 4%, -1.0, ·, 1.7%, ·, -1.0%
- CCOc1ccccc1C(=O)Nc1nnc(SCC(=O)Nc2cc(C)on2)s1
    5%, 6%[15.4 µM], -2.2, -2.5, 6.1%, 0%, -3.3%
- CC(CNC(=O)COC(=O)c1ccco1)c1ccccc1 (stereo unspecified)
    6%, 5%, 10, ·, 2.2%, ·, 0.6%
- Cc1nnsc1C(=O)NC1CCCc2c1cnn2-c1ccc(F)cc1F (stereo unspecified)
    -1%, -54%[inhibitor], 0.2, ·, 0.8%, 14%, -1.0%
- COc1ccc(CN2CCN(S(=O)(=O)c3ccccc3)CC2)cc1Br
    2%, -4%, 3.3, -0.6, -0.7%[38.3 µM], -19%, -0.6%
- O=[N+]([O-])c1cc(C(F)(F)F)ccc1NCCc1c[nH]c2ccc(O)cc12
    -18%, 1%, -1.6, -0.4, 11µM*, 11%, -3.0%
- COC(=O)CN(c1nc(C)cc(OC)n1)S(=O)(=O)c1ccc(C)cc1
    2%, 13%, -7.7, 1.1, 0.4%, 4%, -8.6%
- COc1ccc(N2CCN(C(c3cccs3)C(C)NS(C)(=O)=O)CC2)cc1 (stereo unspecified)
    4%, ?, -1.4, 1.6, 0.8%, -5%, -3.1%
- Cc1nc2ncnn2c(C)c1CCC(=O)N1CCN(c2ccccn2)CC1
    0%, ?, 1.0, 9.7, -1.4%[38.3 µM], 15%, ?
- Nc1cc(=O)[nH]c(SCc2nc3ccccc3n2Cc2ccccc2)n1
    0%, -15%, -2.6, 4.8, 0.1%[38.3 µM], 7%, -1.3%
- Cc1ccc(C(=O)c2c3ccc(C(F)(F)F)cc3[n+]([O-])n2CCCN)cc1
    0%, -26%, 0.0, ·, 8.4%, ·, -3.7%
- CCN(CC(=O)Nc1c(F)cccc1F)C(=O)CCc1nc2ccccc2c(=O)[nH]1
    6%, -12%[15.4 µM], -2.8, ·, 3.3%, ·, ·
- COC(=O)/C=C1/SC(=NC(=O)c2ccc(F)cc2)NC1=O
    6%, 13%[15.4 µM], -3.9, 1.8, -0.4%, 28µM*, ·
- Cc1nn(CC#N)c(=O)n1-c1ccc(F)cc1
    3%, -20%, -3.5, -1.7, -1.9%, 9%, -1.1%
- O=C(CCCN1C(=O)/C(=C/c2cccc(Br)c2)SC1=S)NCCCN1CCOCC1
    4%, 29%, -1.1, ·, 8.8%, ?, -0.9%
- C=Cc1ccc(Cn2nc(-c3ccc(C)cc3)ccc2=O)cc1
    -9%, -16%[15.4 µM], 0.7, 10, 6.1%&0.2%, -28%, -14%
- CN1CCCN(Cc2nc(-c3ccc(Cl)cc3)no2)CC1
    10%, -19%, -1.4, -4.2, 1.0%, 14%, 0.1%
- COc1ccccc1-n1cnc2cc(NCc3ccco3)ccc21
    -4%, 23%, 0.4, 1.4, 9.1%, 0%, -8.4%
- CC(C)C[C@@H](C(=O)NC1CCN(Cc2ccccc2)CC1)N1C(=O)N2CCc3c([nH]c4ccccc34)[C@@]2(C)C1=O
    -8%, ·, -7.9, 3.6, 0.0%, 10%, -2.0%
- Cc1ccn2c(C(=O)N/N=C\c3ccccc3[N+](=O)[O-])c(C)nc2c1
    4%, -16%, -0.1, ·, 2.3%[38.3 µM], ·, 0.2%
- Cc1ccc(C(C)C)c2oc(=O)cc(-c3ccc(-c4ccc(C(F)(F)F)cc4)cc3)c12
    11%, ·, -5.9, 5.6, -0.7%, -1%, -3.8%
- COc1ccc(N2C(=O)CC(N3CCC(C(N)=O)CC3)C2=O)cc1 (stereo unspecified)
    2%, -34%[inhibitor], -2.2, 4.3, -1.9%[38.3 µM], -13%, -0.8%
- Cc1nc2ccccn2c1C(=O)CSc1cccc(Cl)c1
    -21%, 8%, 2.3, 0.1, -0.5%, -18%, ·
- COc1ccc(S(=O)(=O)NN=C2CCCC2)cc1
    4%, ?, -2.0, 1.0, 1.5%[38.3 µM], 1%, 0.6%
- O=C1CC[C@@H]2C[C@@]3(C[C@@H]4CCN1[C@H]24)Nc1cc([N+](=O)[O-])ccc1NC3=NCc1ccccc1
    -15%, ·, -5.6, ·, 3.7%, ·, -2.1%&-0.5%
- CCOc1ccc2oc(C(=O)OCC(=O)N3CC(C)OC(C)C3)c(C)c2c1 (stereo unspecified)
    -7%, -2%, -1.2, ·, 1.9%, ·, 4.4%
- O=c1c2cc3c(cc2[nH]c(=S)n1Cc1ccco1)OCO3
    4%, 6%, -2.2, 11, 8.3%, 20µM*, -11%
- CCn1c(COc2ccc(Cl)cc2)nnc1SCc1nc2ccccc2[nH]1
    ?, 3%, -1.3, 3.3, 2.1%[38.3 µM], -4%, -1.9%
- COCc1cc(C)nc2sc(C(=O)Nc3ccc(OC)cc3)c(N)c12
    -15%, 1%, -3.3, -0.1, 1.5%, 9%, -1.5%
- CN(C)C(=O)c1ccc(-c2n[nH]c(=O)c3ccccc23)cc1
    -3%, 6%, -8.2, -3.8, 1.1%, 20%, -2.7%
- CCCc1nn2c(=O)cc(CSCC(=O)Nc3nnc(CC)s3)nc2s1
    0%, ?, 1.5, ·, -0.1%, 2%, -2.4%
- CNC(=O)NC(=O)COC(=O)CCCSc1nc2ccccc2s1
    -10%, -24%, -1.5, -0.4, 0.1%, 6%, -1.1%
- CCOC(=O)C1=C(COC(=O)c2cccc(N(C)C)c2)NC(=O)NC1C (stereo unspecified)
    2%, -14%[15.4 µM], -1.8, ·, -2.9%, ·, ·
- COc1ccc(C2CC(c3cccs3)=NN2c2ccc(F)cc2)cc1OC (stereo unspecified)
    4%, 12%, 1.4, 12, -0.6%, 5%, ·
- O=C(NCCN1CCN(C(=O)c2cccs2)CC1)c1cccs1
    -2%, -7%, 0.6, -1.9, 5.7%[38.3 µM], -4%, 2.6%
- COc1ccc(/C=N/n2c(C)nc3c([nH]c4ccccc43)c2=O)cc1CN1CCCC(C)(C)C1
    9%, 18%, -0.7, 4.2, 10%, 25%, -0.1%

Bioassay records from PubChem.

Rows are unselected; overall some 5.1% were active at least once.
